Screening results: PubChem BioAssay, Johns Hopkins Ion Channel Center
KCNQ2 block: KCNQ2 potassium channel inhibitors, primary screen, cell-based, CHO-K1, FluxOR thallium flux, B-score (AID 2156) | B-score at 10 µM | 1.1% of 310,000 active | 20 min; active compounds read low; only compounds with negative scores are shown here; some inactives read as strong as hits | Potassium voltage-gated channel subfamily KQT member 2 (Rattus norvegicus), O88943;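 active means fluorescence ratio B-score at most minus 3 library SDs, with starting brightness B-score within 2 library SDs, cut at about -5.5 in these data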
Target sequence (O88943 whole entry, looked up): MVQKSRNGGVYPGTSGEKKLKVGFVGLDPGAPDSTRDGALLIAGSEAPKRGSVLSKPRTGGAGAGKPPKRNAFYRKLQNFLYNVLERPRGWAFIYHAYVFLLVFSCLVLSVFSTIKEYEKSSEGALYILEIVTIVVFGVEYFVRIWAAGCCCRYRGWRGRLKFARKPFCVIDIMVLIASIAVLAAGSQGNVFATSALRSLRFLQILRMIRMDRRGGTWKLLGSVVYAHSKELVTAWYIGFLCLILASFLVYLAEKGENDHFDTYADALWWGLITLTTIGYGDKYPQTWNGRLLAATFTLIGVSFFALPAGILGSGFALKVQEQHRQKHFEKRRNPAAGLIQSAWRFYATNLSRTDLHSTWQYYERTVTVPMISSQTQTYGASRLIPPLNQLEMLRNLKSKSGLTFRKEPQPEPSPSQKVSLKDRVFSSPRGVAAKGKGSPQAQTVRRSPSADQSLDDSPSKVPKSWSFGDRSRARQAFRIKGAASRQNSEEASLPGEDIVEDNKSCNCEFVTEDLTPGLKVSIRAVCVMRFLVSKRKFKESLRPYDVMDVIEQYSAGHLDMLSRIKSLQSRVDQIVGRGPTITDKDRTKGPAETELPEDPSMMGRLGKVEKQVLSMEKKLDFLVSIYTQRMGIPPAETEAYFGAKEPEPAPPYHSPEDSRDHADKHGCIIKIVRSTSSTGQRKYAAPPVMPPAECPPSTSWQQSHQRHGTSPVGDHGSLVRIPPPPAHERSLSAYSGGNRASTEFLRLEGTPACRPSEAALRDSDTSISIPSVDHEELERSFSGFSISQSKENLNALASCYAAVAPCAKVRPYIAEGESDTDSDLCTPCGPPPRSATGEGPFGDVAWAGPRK
KCNQ2 block baseline: second read-out of KCNQ2 block, no call of its own (marks repeat the call); B-score; measured here: initial fluorescence intensity artifact check;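 brightness before thallium and not channel activity; 0 = typical well and far values either way flag optical interference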
Active calls of the source: *; i = inactive. This is a subset; rates above refer to the full screens.

smiles	KCNQ2 block	KCNQ2 block baseline
CCOc1[nH]n(-c2ccc(Cl)cc2)c(=O)c1C=NCc1cccnc1	i	-0.76
CCOc1ccc(S(=O)(=O)N2CCN(C(=S)NC3CC3)CC2)cc1	i	0.43
COc1ccc(-c2cccc([C@H]3[C@@H]4C=CCC[C@@]4(C)C(=O)N3Cc3ccccc3)c2)cc1	i	0.17
O=C1CC(c2ccccc2)CC(O)=C1C=NC1CCCC1 (configuration not stated)	i	-0.08
Cc1csc2ncc(C(=O)NCCC(c3ccccc3)c3ccccc3)c(=O)n12	i	0.57
COc1ccc(C(=O)NC2CC(C)(C)Cc3c2cnn3-c2ccccc2)c(OC)c1 (configuration not stated)	i	-3.07
CN(C(=O)c1cc(-c2ccc3c(c2)OCO3)on1)c1ccccc1	i	-0.44
O=C(CSc1nc2ccsc2c(=O)n1-c1ccccc1)N1CCCC1	i	0.66
CCN(c1ccccc1)c1nc2ccsc2c(=O)s1	i	-0.34
O=C(CSc1nnc(COc2ccccc2F)n1-c1ccccc1)NC1CCS(=O)(=O)C1 (configuration not stated)	i	1.83
COCCCN1CC(=O)N2C(c3cccc(C)c3)c3[nH]c4ccccc4c3C[C@H]2C1=O (some centres not stated)	i	-0.54
CC(O)/C=C/C1OC(=O)CC1Nc1ccc(C=O)cc1 (configuration not stated)	i	0.43
CC(C)C(NC(=O)c1ccc(C(C)(C)C)cc1)C(=O)Nc1cccc(S(N)(=O)=O)c1 (configuration not stated)	i	2.44
CN(C)CCCOC(=O)COc1ccc(C(C)(C)C)cc1	i	-0.82
FC(F)(F)c1nnc(-c2ccccc2)nc1N1CCCC1	i	5.55
O=C(NC(=S)NCCOCc1ccc(Cl)cc1)c1cccnc1	i	-0.2
Cc1nc(-c2ccccc2)sc1C1(C)CC(c2cccnc2)=NO1 (configuration not stated)	i	-0.29
CC(C)N(C(=O)CSc1nc2ccccc2c(=O)[nH]1)C(C)C	i	-0.62
O=C(OCc1ccccc1)/C(=C/c1cccc(Br)c1)NC(=O)c1ccco1	-9.56*	2.73*
CC1(C)C2CCC1(CS(=O)(=O)Nc1ccc(S(=O)(=O)N3CCCCC3)cc1)C(=O)C2 (configuration not stated)	i	-0.07
CC1(C)CC(NC(=O)COc2ccc(Cl)cc2Cl)CC(C)(C)N1	i	-0.32
CCCS(=O)(=O)N1CCCC(C(=O)NC2CCCC(C)C2C)C1 (configuration not stated)	i	-0.02
O=[N+]([O-])/C(C(=C(Cl)Cl)N1CCN(Cc2ccccc2)CC1)=C1\NCCN1Cc1ccc(Cl)nc1	i	0.08
Cc1ccc(Cl)cc1NC(=O)CCn1cccc1	i	1.15
Oc1ccc(/C=N/N=C/c2ccc(O)c(O)c2)cc1O	i	0.61

Single records (already shown). Screens in order: KCNQ2 block	KCNQ2 block baseline
CCOc1ccc(S(=O)(=O)N2CCN(C(=S)NC3CC3)CC2)cc1 is listed with i	0.43
CC1(C)CC(NC(=O)COc2ccc(Cl)cc2Cl)CC(C)(C)N1 is listed with i	-0.32
O=[N+]([O-])/C(C(=C(Cl)Cl)N1CCN(Cc2ccccc2)CC1)=C1\NCCN1Cc1ccc(Cl)nc1 is listed with i	0.08
Cc1csc2ncc(C(=O)NCCC(c3ccccc3)c3ccccc3)c(=O)n12 is listed with i	0.57

Remaining list, next part
smiles	KCNQ2 block	KCNQ2 block baseline
NC(=O)c1ccc(NC(=O)CCNC(=O)c2ccco2)cc1	i	-0.02
COc1ccccc1NC(=O)C12CCC(C)(C(=O)C1)C2(C)C (configuration not stated)	i	-0.11
c1ccc(-c2nc(NCCCn3ccnc3)c3oc4ccccc4c3n2)cc1	i	4.14
Clc1cc(Cl)cc(CSc2nnc(-c3sccc3-n3cccc3)o2)c1	-5.89*	-0.13*
CCOC(=O)CN1CC23C=CC(O2)C(C(=O)Nc2ccc(F)c(C)c2)C3C1=O (configuration not stated)	i	-1.29
COCCCNC(=O)C1CCN(c2ccc(N3CCOCC3)nn2)CC1	i	-0.95
c1ccc(N/N=C2\CCCc3ccccc32)nc1	i	-0.08
CC(CNC(=O)CN1C(=O)c2cccnc2Oc2ccc(Cl)cc21)c1ccccc1 (configuration not stated)	i	0.01
CCOC(=O)c1nnn(-c2nonc2N)c1-c1cccc2ccccc12	i	-1.88
CN1CCN(c2ccc(S(=O)(=O)N3CCCCC3)cc2NC(=O)Cc2ccccc2F)CC1	i	-1.43
CC(C)[C@H](NC(N)=O)C(=O)Nc1ccc(OCc2ccccc2)cc1	i	0.18
CCN1CCN(c2ccc(S(=O)(=O)N3CCCCC3)cc2NC(=O)COc2ccc(Cl)c(C)c2)CC1	i	0.1
CNC(=S)N1CCn2cccc2C1c1cc(OC)c(OC)c(OC)c1 (configuration not stated)	i	-0.06
COc1cccc(NC(=O)CSc2nc3c([nH]c4ccccc43)c(=O)n2C)c1	i	-1.09
N#Cc1cc(-c2ccc(Cl)cc2)cnc1Sc1ccccc1	i	0.13
COc1ccc(NC(=O)CCNC(=O)c2ccco2)cc1Cl	i	-1.32
C=CCNCCCCOc1ccccc1	i	-0.06
CCN(CC)C(=O)Cn1cc(C(=O)C(=O)N2CCCc3ccccc32)c2ccccc21	i	0.06
O=S(=O)(NCc1cccnc1)c1cc(Cl)ccc1Cl	i	-0.06
CCOC(=O)c1ccc(NS(=O)(=O)N2CCCCCC2)cc1	i	-2.01
COc1ccc(NC(C)=O)cc1NS(=O)(=O)c1cn(C)c(=O)n(C)c1=O	i	-1.98
CC(=O)NNC(=O)CCn1nnc2ccccc21	i	-1.24
O=C(NN=C1CCCCCCC1)c1ccc(F)cc1	i	0.9
COc1ccc(C(=O)CC(=O)C(=O)Nc2cccc(F)c2)cc1	i	-0.75
Cc1ccc(-c2cccc(C3CC=CC4C3C(=O)N(Cc3ccccc3)C4c3cc(C)ccc3F)c2)cc1 (configuration not stated)	i	1.82

Sorted by length of the SMILES (smallest number first): some entries from above.
smiles	KCNQ2 block	KCNQ2 block baseline
CCOC(=O)c1ccc(NS(=O)(=O)N2CCCCCC2)cc1	i	-2.01
c1ccc(-c2nc(NCCCn3ccnc3)c3oc4ccccc4c3n2)cc1	i	4.14
CC(CNC(=O)CN1C(=O)c2cccnc2Oc2ccc(Cl)cc21)c1ccccc1 (configuration not stated)	i	0.01

Additional structures
smiles	KCNQ2 block	KCNQ2 block baseline
Cc1ccc(OCc2nnc(SCC(=O)O)n2N)cc1	i	0.97
O=C(CN(Cc1ccccc1F)C(=O)c1csnn1)NC1CCCCC1	i	0.69
CN(C(=O)COc1ccccc1)c1nnc(C23CC4CC(CC(C4)C2)C3)s1	i	0.04
Cc1ccc(-c2cn(S(=O)(=O)c3cccc([N+](=O)[O-])c3)nc2N)cc1	i	-0.56
C(=C\c1ccccc1)/C=N/Nc1nc(N2CCCCC2)nc(N2CCCCC2)n1	i	-0.03
O=C(CCC(=O)NNC(=O)COc1ccccc1)NCc1ccccc1	i	-0.54
COc1ccc(-c2nnc(-c3ccc(C)cc3)o2)cc1	i	0.15
CC1(C)CC(=O)C2=C(C1)OC(N)=C(C#N)C21CCN(Cc2ccccc2)CC1	i	2.3
COc1ccc(Nc2nc(-c3c[nH]c4ccccc34)cs2)cc1	i	-1.16
CCc1nc2nc(C)c(NS(=O)(=O)c3ccc(CC(C)C)cc3)c(=O)n2[nH]1	i	0.88
O=C(NC1CCCCC1)C1(c2ccccc2)CC1(Cl)Cl (configuration not stated)	i	-0.53
CCOC(=O)C1CCN(C(=O)/C=C/c2ccccc2)CC1	i	-1.39
Cc1ccc(S(=O)(=O)NCc2ccc(C(=O)N3CCN(c4ccccn4)CC3)cc2)cc1	i	-0.32
CC(C)=CCc1c(O)cc(O)c2c(=O)c3c(CC=C(C)C)c(O)ccc3oc12	i	-1
CCN1CCN(C(=O)c2ccc3c(c2)S(=O)(=O)c2ccccc2C3=O)CC1	i	0.36
CC(C)c1ccc(OCC(=O)N2CCc3ccccc3C2)cc1	i	-0.17
O=C1c2ccccc2C(=O)N1CCSc1nc2ccccc2c(=O)n1CCCN1CCOCC1	i	-0.15
CCC(=O)N1CCN(c2ccc(NC(=O)c3ccc(-c4ccccc4)cc3)cc2)CC1	i	0.61
Cc1c(Cl)cccc1N1C(=O)C2ON(c3ccccc3)C(c3cccnc3)C2C1=O (configuration not stated)	i	0.88
COc1cccc(NC(=O)C(NCC2CCCCC2)c2ccccc2)c1 (configuration not stated)	-10*	0.44*
COc1ccc(OC)c(NC(=O)c2cnn(-c3ccccc3)c2C)c1	i	-1.9
Cc1ccc(-c2cc(C(=O)N3CCN(c4ncccn4)CC3)c3ccccc3n2)cc1	i	-1.12
O=C(O)c1c2c(nc3ccc(S(=O)(=O)N4CCC(C(=O)NCc5ccc(Cl)cc5)CC4)cc13)CCCC2	i	0.2
O=C(/C=C/c1cccc([N+](=O)[O-])c1)OCC1CCCO1 (configuration not stated)	i	3.22
CC(C#N)(Cc1ccccc1)Nc1ccccc1 (configuration not stated)	i	-0.2
CC(C)(C)NC(=O)NC(=O)COC(=O)c1c(F)cccc1Cl	i	1.5
Cn1c(=O)c(C(=O)NCc2ccccc2Cl)c(O)c2ccccc21	i	1.51
CCOc1cc(S(=O)(=O)NCc2ccco2)c(OCC)cc1-n1cnnn1	i	0.28
O=Cc1cccn1-c1cccnc1	i	0.59
CCOC(=O)C1CCCN(Cc2cccc(Cl)c2)C1 (configuration not stated)	i	0.87
Cc1ccccc1NC(=O)c1ccccc1NC(=O)CCC(=O)O	i	1.57
COc1ccc(-n2c(=S)[nH]c3c(sc(=S)n3-c3ccccc3)c2=O)c(OC)c1	i	0.94
O=C1OCC2=C1C(c1ccc(F)cc1)Sc1ccccc1N2 (configuration not stated)	i	-0.08
Cc1ccnc(OC(C(=O)O)C(OCc2ccccc2)(c2ccc(F)cc2)c2ccc(F)cc2)n1 (configuration not stated)	i	0.3
CCCCOC(=O)c1nnc(-c2ccccc2)o1	i	0.57
COC(=O)[C@H](CC(C)C)NC(=O)CCc1nnc(COc2ccccc2)o1	i	0.99
COc1ccc(C(=O)OCC(=O)Nc2ccc3[nH]c(=O)[nH]c3c2)c(OC)c1OC	i	-0.58
COc1cc(C(c2c(C)[nH][nH]c2=O)c2c(C)[nH][nH]c2=O)cc(Cl)c1O	i	0.47
O=C(COC(=O)c1ccccc1Nc1ccccc1)c1ccccc1	i	-0.97
O=C1CCCC(O)=C1C(C#Cc1ccccc1)C1=C(O)CCCC1=O	-6.46*	1.39*
C/C(=N\NC(=O)c1ccc(-c2ccccc2)cc1)c1cccc(N)c1	i	-1.1
CCOc1ccc(NC(=O)C2CCN(S(=O)(=O)c3cccnc3)CC2)cc1	i	-1.54
O=C(CCCc1ccccc1)N1CCc2ccccc21	i	-0.1
COc1ccc(CCNc2c(N)n(Cc3ccccc3)c(=O)[nH]c2=O)cc1OC	i	0.12
CCOC(=O)C(=CNNc1ccsc1C(=O)OC)C(=O)OCC	i	1.33
CC(C)Cc1ccc(S(=O)(=O)Nc2ccccn2)cc1	i	-1.86
CCC(=O)Nc1cccc(-c2nnc(SCC(=O)c3ccccc3)n2C)c1	i	1.14
CC1CCCC(C)N1C(=O)Cn1nnc(-c2ccc([N+](=O)[O-])cc2)n1 (configuration not stated)	i	2.93
O=C(COc1ccc(Cl)cc1Cl)NC1CCSC1=O (configuration not stated)	i	0.9
COc1ccccc1NS(=O)(=O)c1cc2c3c(c1)CCN3C(=O)CC2	i	2.02

Further entries
smiles	KCNQ2 block	KCNQ2 block baseline
CN1c2ccccc2-c2nc3ccccc3n2C1c1ccncc1 (configuration not stated)	i	-0.3
CN(Cc1ccccc1)S(=O)(=O)c1cccs1	i	1.72
Cc1ccc(S(=O)(=O)N(C)c2ccccc2C(=O)NC2CCCC2)cc1	i	0.11
COc1ccccc1N(CC(=O)NCCSCc1ccccc1)S(=O)(=O)c1ccc(C)cc1	i	0.54
CN(Cc1ccc(OC(F)F)cc1)C(=O)c1ccc2nccnc2c1	i	2.27
Cc1ccc(S(=O)(=O)N2CCC(C)CC2)cc1C(=O)NCCN1CCOCC1	i	0.34
COc1ccc(C(=O)NC2CCCc3c2cnn3-c2cccc(C)c2C)o1 (configuration not stated)	i	-1.14
O=C(NCc1ccccc1C(F)(F)F)C1CCC(=O)N(CCCc2ccccc2)C1 (configuration not stated)	i	2.78
COC(=O)c1ccc(OC(=O)c2cccs2)cc1	i	-0.02
COc1nc(OC/C(N)=N/O)nc(N2CCOCC2)n1	i	0.68
COc1ccc(OC)c(N=C2C(=O)Nc3ccccc32)c1	i	-1.59
COc1ccc(CCNC(=O)c2nnc(CS(=O)(=O)c3ccccc3)o2)cc1OC	i	-1.77
c1ccc(-n2cc(CNCCc3cscn3)c(-c3ccc4c(c3)OCO4)n2)cc1	i	0.21
CCN1CCCC1CNC(=O)c1cc(OC)c(OC)c(OC)c1 (configuration not stated)	i	-1.27
Cc1cccc(-n2c(O)c(C=Nc3ccccc3N)c(=O)[nH]c2=O)c1	i	1.21

Of the compounds above, three have a cyano group.
smiles	KCNQ2 block	KCNQ2 block baseline
N#Cc1cc(-c2ccc(Cl)cc2)cnc1Sc1ccccc1	i	0.13
CC1(C)CC(=O)C2=C(C1)OC(N)=C(C#N)C21CCN(Cc2ccccc2)CC1	i	2.3
CC(C#N)(Cc1ccccc1)Nc1ccccc1 (configuration not stated)	i	-0.2
